# Compound activity (PubChem)
# BasE inh = BasE siderophore enzyme inhibitors, primary screen, biochemical, Acinetobacter baumannii ATCC 17978, fluorescence polarization; 0.1% of 84,000 active; purified BasE, fluorescence polarization binding displacement; inhibition, % (test concentration not listed);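 active = both replicates above 25% with normal brightness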;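 also: 0% = negative plate control signal and 100% = positive plate control signal; stock transfer was 100 nL into about 30 µL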
# LANA-nucl inh = inhibitors of KSHV LANA-nucleosome binding, primary screen, biochemical, fluorescence polarization, FITC-LANA1-23, chicken nucleosomes. FITC-LANA1-23 / chicken nucleosome fluorescence polarization; stronger effect = lower value. z-score (no concentration beside the values). 0.3% of 51,000 active. AID 720717, 2013;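 active = both repeat wells score below -2 in polarization z-score versus plate sample wells, excluding overly bright wells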;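 also: 100 nL library stock added to about 30 µL; numbers are from one replicate; some results filed as inactive read as strong as hits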
#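 System – purified chicken nucleosomes with FITC-labelled LANA N-terminal peptide (1-23) · Amount – 240 nM purified chicken nucleosomes (480 nM peptide binding sites), final · Also added – 50 nM FITC-LANA1-23 probe · Medium – TEN-BT buffer, pH 7.5 · Incubation – compound with peptide–nucleosome mix 10–45 min at room temperature · Detection – fluorescence polarization, ex 480 nm, em 535 nm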
# The depositor's hits bear a star; x = no result given; & = joins results of further samples.
SMILES,BasE inh,LANA-nucl inh
Cc1nc2ccccc2nc1CSc1nnc(C2COc3ccccc3O2)n1C (stereo not given),2.1,x
COC(=O)C(C)Sc1nnc(Cc2cc(=O)[nH]c(=O)[nH]2)n1-c1cccc(C)c1 (stereo not given),2.2,0.22
O=S(=O)(c1ccc(Cl)cc1)N(Cc1ccccn1)Cc1ccccn1,x,-1.4
COCC(=O)Nc1ccc(C(C)C)cc1,1.3,-0.63
S=C(Nc1ccc(Oc2ccccc2)cc1)NN1CCOCC1,-2.4,-1
CCOc1nc2cnccc2n(C(CC)C(=O)NC2CCCCC2)c1=O (stereo not given),2.2,-1.4
CC(CNC1CCN(C)CC1)c1ccccc1 (stereo not given),-1.7,-0.93
Cc1cc2c(cc1C)NC(c1ccc(N(C)C)cc1)C1=C(CC(C)(C)CC1=O)N2 (stereo not given),1.3,-0.27
COc1ccc2c(c1)-c1c(ssc1=Nc1ccc(S(N)(=O)=O)cc1)C(C)(C)N2,-3.1,1.2
COC(=O)C(=Nc1ccc(NC(C)=O)cc1)C(F)(F)F,0.7,x
N#CCCC1CCCCCCCCCCC1O (stereo not given),-0.5,x
Oc1ccc(C2Oc3ccccc3C3CC(c4ccccc4O)=NN32)cc1 (stereo not given),-0.1,0.77
COc1cccc(OCC(=O)Nc2cccc(C(=O)O)c2C)c1,-1.5,1.1
CCOC(=O)C1CCN(c2ccccc2CN2CCN(c3ncc(C(F)(F)F)cc3Cl)CC2)CC1,-1.4,0.37
CC(=O)OCC(=O)[C@@]12OC3(CCCC3)O[C@@H]1CC1C3CCC4=CC(=O)C=C[C@]4(C)[C@@]3(F)[C@@H](O)C[C@@]12C (stereo not given in full),-1.5,0.64&0.5
COc1cccc(OC)c1OC(=O)c1c(F)cccc1F,1.2,x
O=C1C(=O)N(CCCN2CCOCC2)C(c2ccccc2F)/C1=C(\O)c1ccc2c(c1)OCCO2 (stereo not given),-1.6,-1.3
O=C1CCCC2=C1C(c1ccc(Cl)cc1)c1c(ccc3ccccc13)N2 (stereo not given),2.5,x
CC(C)(C)C1CCc2c(sc(NC(=O)CSc3nnc(-c4ccncc4)o3)c2C#N)C1 (stereo not given),-2.1,x
CCC(C)NC(=O)c1cnc2n(c1=O)CCS2 (stereo not given),0.1,-1.4
Cc1ccc(N2C(=O)CC(NCc3ccc(S(N)(=O)=O)cc3)C2=O)cc1Cl (stereo not given),-0.8,0.86
CC1=C(NS(=O)(=O)c2cccc(C(=O)O)c2)CN(c2ccccc2)N1C,0.3,0.18
CCC1CCCCN1C(=O)CSc1nc2ncccc2o1 (stereo not given),-2.9,2.9
Nn1c(SC(C(=O)N2CCCCC2)c2ccccc2)nnc1C1CC1 (stereo not given),0.1,x
C=CCN(C(=O)c1noc2c1CCCC2)c1ccccc1,2.9,x
O=C(Nc1n[nH]c(C(F)(F)F)n1)c1cccs1,1.1,x
CNS(=O)(=O)Cc1ccc2[nH]cc(CCN(C)C)c2c1,x,0.4&-0.13
CN(C)C(=O)COc1ncnc2sc3c(c12)CCC3,0.7,x
Cc1ccc(-c2noc(-c3ccc(Oc4cc(Cl)cc(Cl)c4)o3)n2)cc1,-2.0,1.1
CCN(CC)C(=S)Sc1ncnc2sc3c(c12)CCCC3,0.9,x
CCN1Cc2cccc(C(=O)Nc3ccc(Br)cc3)c2C1=O,4.4,0.42
NNC(=O)CNc1ccc2c(c1)OCO2,-2.9,x
O=C1NC(=O)C(=CN2CCN(S(=O)(=O)c3ccc(Cl)cc3)CC2)C(=O)N1,0.3,x
O=C(c1cccs1)N(c1ccccc1)C1C=CS(=O)(=O)C1 (stereo not given),0.2,-0.45
O=C(NC(=S)NCC1COc2ccccc2O1)c1ccc(Cl)cc1 (stereo not given),0.9,x
Oc1oc(-c2ccccc2)nc1C1=Nc2ccccc2CC1,2.7,x
COc1ccc(C(=O)NCC(=O)c2ccccc2)cc1,-1.0,0.71
Cc1ccccc1C(=O)NCC(=O)O,-0.5,x
O=C(NC1=NCCN1)c1c(Cl)cccc1Cl,0.6,x
CN(CCC#N)S(=O)(=O)c1cn(C)c(=O)n(C)c1=O,-0.4,0.62
CCC1=Nc2ccc(Br)cc2C(c2ccccc2)N1CC(=O)NN (stereo not given),-5.2,x
CCOC(=O)n1c(SCC)nc2ccccc21,0.3,-1
Cc1ccc(C(=O)ON=C2CCN(C)CC2)cc1,-3.1,-0.47
CCSc1nnc(NC(=O)c2ccccc2)s1,-0.1,-0.033
CCOC(=O)c1ccc(NC(=O)CC2SC(=Nc3ccc(S(N)(=O)=O)cc3)NC2=O)cc1 (stereo not given),-2.1,4.5
CCO/C=N/c1c(C#N)c(CC#N)nn1-c1ccccc1,-5.5,1.2
O=C(O)c1cc2ccc(F)cc2[nH]1,-0.2,-0.64
COC(=O)C1=C(C)N=C2SC(C)C(=O)N2C1c1ccc(C(C)C)cc1 (stereo not given),0.9,x

# Sorted by number of heavy atoms (largest number first): part of the list above.
SMILES,BasE inh,LANA-nucl inh
CCOC(=O)c1ccc(NC(=O)CC2SC(=Nc3ccc(S(N)(=O)=O)cc3)NC2=O)cc1 (stereo not given),-2.1,4.5
Cc1ccc(-c2noc(-c3ccc(Oc4cc(Cl)cc(Cl)c4)o3)n2)cc1,-2.0,1.1
COC(=O)C1=C(C)N=C2SC(C)C(=O)N2C1c1ccc(C(C)C)cc1 (stereo not given),0.9,x
CCC1=Nc2ccc(Br)cc2C(c2ccccc2)N1CC(=O)NN (stereo not given),-5.2,x
Oc1oc(-c2ccccc2)nc1C1=Nc2ccccc2CC1,2.7,x
CCN(CC)C(=S)Sc1ncnc2sc3c(c12)CCCC3,0.9,x
CNS(=O)(=O)Cc1ccc2[nH]cc(CCN(C)C)c2c1,x,0.4&-0.13
CN(C)C(=O)COc1ncnc2sc3c(c12)CCC3,0.7,x
Cc1ccc(C(=O)ON=C2CCN(C)CC2)cc1,-3.1,-0.47
O=C(Nc1n[nH]c(C(F)(F)F)n1)c1cccs1,1.1,x
O=C(NC1=NCCN1)c1c(Cl)cccc1Cl,0.6,x
NNC(=O)CNc1ccc2c(c1)OCO2,-2.9,x
Cc1ccccc1C(=O)NCC(=O)O,-0.5,x
O=C(O)c1cc2ccc(F)cc2[nH]1,-0.2,-0.64

# Additional entries.
SMILES,BasE inh,LANA-nucl inh
C=CCNC(=O)C1CC(c2ccccc2OC)=NO1 (stereo not given),1.5,-0.76
CCOC(=O)/C(C#N)=C/Nc1ccn[nH]1,0.8,-0.68
Cc1ccc(CN(C)C(=O)C2CCN(C(=O)Nc3ccccc3)CC2)o1,4.4,x
CC(C(=O)C12CC3CC(CC(C3)C1)C2)N(C)C (stereo not given),1.6,0.97
COc1ccccc1CNC(=O)c1ccc(N2CC3CC(C2)c2cccc(=O)n2C3)c(NC(=O)c2ccncc2)c1 (stereo not given),-1.7,-1.3
COc1ccc(N2CCOCC2)c(NC(=O)c2ccco2)c1,x,0.41
Cc1cc(C(=O)OCC(=O)c2ccc3c(c2)OCO3)c2ccccc2n1,-2.9,x
O=C(OC(C(=O)NCc1ccc2c(c1)OCO2)c1ccccc1F)c1ccco1 (stereo not given),0.7,-0.56
O=C(CSC1=NCCS1)n1c2c(c3ccccc31)CCCC2,-0.1,-0.18
C=CCc1cccc2cc(C(N)=O)c(=N)oc12,0.1,0.042
CCc1nn(CC(=O)NCCCN2CCCCC2CC)c(=O)c2cc3sc(C)cc3n12 (stereo not given),-3.3,-0.86
Clc1cccc(Nc2nnc(-c3ccccc3)c3ccccc23)c1,-0.1,0.18
CCN(CC)S(=O)(=O)c1cccc(C(=O)OCC(=O)c2cccs2)c1,-0.8,x
CCN1C(=O)C2C(c3ccc(OC)cc3)NC(CC)(C(=O)OC)C2C1=O (stereo not given),1.8,-0.064
Cc1cccn2c(=O)c(C=C3C(=O)NC(=S)NC3=O)c(N3CCCC3)nc12,4.3,x
NNc1nc2cc(Cl)ccc2nc1Cl,x,-0.71
Clc1c(-c2nnc3n2CCCCC3)sc2ccccc12,-3.6,x
Cc1cc(C)n(C(C)CNC(=O)c2ccccc2)n1 (stereo not given),1.7,-1.2
CCCN(CC(=O)Nc1ccc(F)c(F)c1F)Cc1c(C(=O)OCC)oc2ccccc12,-0.6,x
CCOC(=O)N1CCC(n2c(SCC(=O)N(C)Cc3ccccc3)nc3ccccc3c2=O)CC1,-0.1,-0.28
CCN(C(=O)C(C)Oc1ccccc1)C1CCCCC1 (stereo not given),0.4,0.2
Cc1cc(C)c(NC(=O)c2[nH]c3c(c2C)C(=O)CCC3)c(C)c1,0.4,x
Clc1ccc(Nc2nnnc3ccccc23)cc1Cl,x,-0.55
COc1ccc(-c2cc3nc4c(c(N5CC(C)CC(C)C5)n3n2)CCC4)cc1 (stereo not given),-0.5,-0.24
O=C(OCc1nnc(-c2ccccc2)o1)C1CC(=O)N(c2ccccc2)C1 (stereo not given),-5.1,1.5
Cc1oc2ncn(CC(C)C)c(=O)c2c1C(=O)N=C1NC(=O)CS1,-1.7,x
C[N+]1(CC(=O)OCCCC2CCCCC2)CCCCC1,0.5,x
O=C(N/N=C/c1ccc[nH]1)c1ccccc1O,3.3,0.57
Nc1nonc1-n1nnc(C(=O)N/N=C2\CCc3ccccc32)c1-c1ccccc1,1.8,-0.7
CCSc1nc2c(c(=O)n1C)SCC2,-1.6,-0.11
O=c1c(O)c(-c2ccc3c(c2)OCO3)oc2ccccc12,0.5,-0.25
S=C(Nc1cccnc1)Nc1ccccc1N1CCCCC1,3.7,x
CCCNc1sc(S(=O)(=O)CC)nc1S(=O)(=O)c1ccc(C)cc1,0.9,-0.11
CCCC(=O)Nc1cc(Cl)cc(Cl)c1,x,-0.086
CCOC(=O)C1=C(NC(=O)c2cccc(F)c2)Nc2ccccc2N=C1,0.6,x
CN(C)S(=O)(=O)c1cccc(-c2nnc(SCc3cc(Cl)cc4c3OCOC4)n2N)c1,-1.9,x
NS(=O)(=O)c1ccc(NC2SC(=O)N(c3ccccc3)C2=O)cc1 (stereo not given),-3.7,1.7
Nc1cccc2c1C(=O)N(CC(=O)N1CCc3ccccc31)C2=O,1.9,x
COc1cccc(NC(=O)CN(C)C(=O)c2ccccn2)c1,2.4,x
CC(C(=O)NC1(C#N)CCCCC1)N1CCNC(=O)C1 (stereo not given),2.2,x
O=C(CCS(=O)(=O)c1cccc2nsnc12)N1CCCCC1,-0.2,0.084
O=C(CCc1ccccc1O)N1CCN(S(=O)(=O)/C=C/c2ccccc2)CC1,1.2,x
Cc1cc(C(=O)NN=C2CCCC2)c(C)n1-c1ccccc1,3.0,x
Cc1cccc(C)c1-n1ncc(C(=O)O)c1C1CCNCC1,1.5,0.41
CC(=O)Nc1ccc(S(=O)(=O)Nc2nc3ccccc3nc2Sc2nncn2C)cc1,4.2,x
CC(CC(=O)NCC1(N(C)C)CCCCC1)c1ccccc1 (stereo not given),1.0,x
O=C(O)CCN1CCN(C2CCCCC2)CC1,-1.6,0.0045
COCc1cnc(Nc2nc3ccccc3o2)nc1C(=O)OC,5.2,-0.025
COC(=O)Cc1[nH]n(-c2nc3ccccc3s2)c(=O)c1C=Nc1ccc(C)cc1,-1.6,x
NC(=O)C1Cc2ccccc2CN1 (stereo not given),-0.8,0.24
C#Cc1ccc(C#C)cc1,0.1,0.22
Cc1nn(-c2ccc(Cl)cc2)c2sc(C(=O)OCC(N)=O)cc12,0.1,x
Cc1ccnn1C(C)C(=O)O (stereo not given),0.2,-1.2
CN(C)S(=O)(=O)N(CC(=O)N1CCCC1)c1ccccc1,0.7,-0.55
O=C(CN1CCOCC1)Nc1nc2ccc(Cl)cc2s1,-0.4,0.097
CCCn1c2ccc(F)cc2c2nnc(SCCN(CC)CC)nc21,1.2,-0.86
CC[N+](C)(C)c1cccc(O)c1,-2.7&0.7,0.06&1.7&-0.2
Cn1c(N)c(C(=O)COC(=O)CC2CC3CCC2C3)c(=O)n(C)c1=O (stereo not given),0.0,x
COc1cccc(C2NCCc3ccccc32)c1 (stereo not given),-3.9,-0.59
Cc1ccccc1N=C1C(=O)N(CN2CCCCC2)c2ccc(Br)cc21,-2.3,x
# Other structures:
SMILES,BasE inh,LANA-nucl inh
Cc1ccc(S(=O)(=O)CC(N)=O)cc1,0.6,0.21
COc1ccccc1NC(=O)CN1CCN(C/C=C/c2ccccc2)CC1,1.3,-0.74
O=c1ccc2cc(S(=O)(=O)NCc3ccccc3)ccc2o1,2.0,-0.036
O=C(CCCc1c[nH]c2ccccc12)Nc1nnc(-c2ccc(Cl)cc2)o1,-0.5,x
Cc1ccc(S(=O)(=O)N2CCN(c3ncnc4sccc34)CC2)cc1C,1.1,x
O=C(OCc1cccc2ccccc12)C1CCN(c2nc3ccccc3o2)CC1,-0.3,x
CCOC(=O)c1c(N=Cc2ccc(OC)c(OC)c2Cl)n[nH]c1C,-4.4,x
S=c1ccc2ccccc2[nH]1,-2.0,x
COC(=O)C(=C/C(C)=C/c1ccco1)C(=O)OC,1.3,-0.2

# Not all compounds are listed; count on the stated rates, not on these rows.
